Screening data: PubChem, ICCB-Longwood Screening Facility, Harvard Medical School
HCMV UL50-53 inh – cytomegalovirus nuclear egress complex inhibition; AID 1918969; actives 0.15% (n = 190,000); HTRF UL50-UL53 interaction, normalized percent inhibition; inhibition, % (test concentration not listed);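 active means both replicates at 50% or more, plus weaker picks with an unusually low signal ratio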;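 further: stock transfer was 100 nL into about 20 µL; 0% = negative control wells and 100% = wells with untagged competitor protein; inactives centre near -12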
Sa growth inh – S. aureus growth inhibition | relative growth, % (no concentration beside the values) | S. aureus RN4220 growth, OD600, 20 h, 42 °C; hits give low values | actives 0.53% (n = 170,000) | AID 720641;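 active means growth at 42 °C up to 50% and 20 or more points under that at 30 °C, or under 10% at both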;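 further: 300 nL library stock went into each well; scaled to the means of positive and negative controls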
GIV-Gai inh – inhibitors of GIV GBA-motif binding to rat Galpha-i3; Galpha-i3/FITC-GIV peptide fluorescence polarization, 90 min; hits give low values; scaled: aluminum fluoride 0%, vehicle 100%; percent of control (FP), % (concentration not given with the values); actives 0.42% (n = 210,000); AID 1224905;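 active means replicate mean at 85% of control or lower, very high polarization wells dropped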;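 further: wells of about 15 µL received 100 nL stock; the first replicate is given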
Target sequence (P08753 whole entry, looked up): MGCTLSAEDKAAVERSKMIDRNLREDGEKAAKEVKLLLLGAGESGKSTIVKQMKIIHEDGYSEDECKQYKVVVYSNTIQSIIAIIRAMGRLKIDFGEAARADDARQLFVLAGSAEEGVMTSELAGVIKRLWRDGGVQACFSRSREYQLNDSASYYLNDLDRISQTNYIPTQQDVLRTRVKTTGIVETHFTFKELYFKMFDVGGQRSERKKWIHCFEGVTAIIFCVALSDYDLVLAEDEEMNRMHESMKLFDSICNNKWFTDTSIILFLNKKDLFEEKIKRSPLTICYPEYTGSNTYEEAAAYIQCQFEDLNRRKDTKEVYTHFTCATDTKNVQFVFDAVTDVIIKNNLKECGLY
Sa growth inh second temp – also measured in Sa growth inh; calls as there; relative growth, %; measured here: growth at 30 °C;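 optical density after 20 h as mean of two plates; 100% = untreated growth and lower means inhibition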
An asterisk follows results filed as active; nt = no result given; & = joins results of further samples. An unsorted share of the library. Share with any hit: about 0.82%.

1) COCc1cc(=O)[nH]c(SCC(=O)C(C)(C)C)n1
2) COc1ccc2c(c1)c1c(c(=O)n(CCc3ccccc3)c(=O)n1Cc1cccc(C)c1)n2C
3) COC(=O)c1cc(S(=O)(=O)N2CC(C)CC(C)C2)c[nH]1 (configuration not stated)
4) CCOc1ccc2c(c1)sc(N)[n+]2Cc1cc(C)cc2cccnc12
5) CCOC(=O)C1CCN(C(=O)c2cccc(C3CCCN(C(=O)c4ccc(OC)cc4)C3)c2)CC1 (configuration not stated)
6) CCC1Cn2c(C(=O)NC3CCCCC3)cc3c(Cl)ccc(c32)O1 (configuration not stated)
7) COc1ccc(S(=O)(=O)NCCc2sc3nc(-c4ccc(C)cc4)nn3c2C)cc1F
8) Cc1nnc(SCc2cc(=O)oc3cc(O)ccc23)n1Cc1ccccc1
Assay by compound	1	2	3	4	5	6	7	8
HCMV UL50-53 inh	-28.2	nt	5.4	-27.6	10.6	0.7	nt	-31.7
Sa growth inh	89.2	108.3	104.4	51.2	nt	nt	110.9	81.9
Sa growth inh second temp	89.0	84.2	100.6	25.0	nt	nt	93.5	93.5
GIV-Gai inh	102.1	107.9	103.2	nt	105.3	102.7	105.5&94.7	nt

9) CCN(CC)CCN1C2=C(C(=O)CC(C)(C)C2)C(c2cccc(F)c2)C2=C1CC(C)(C)CC2=O
10) Cc1ccc2c(=O)cc(C(=O)Nc3ccc(S(=O)(=O)N4CCCCCC4)cc3)oc2c1
11) COc1ccc(CCNC(=O)C(c2ccccc2)c2ccccc2)cc1OC
12) O=C(CSc1nc2ccccc2c(=O)n1CCCO)c1ccc2c(c1)OCO2
13) Cc1sc2ncn(CC(=O)NCCC3=CCCCC3)c(=O)c2c1S(=O)(=O)N1CCCCC1
14) CCCCCn1c(=O)[nH]c2cc(C(=O)Nc3ccc(F)cc3)ccc2c1=O
15) Cc1sc2ncc(C(=O)N3CCN(c4ccccc4F)CC3)c(=O)n2c1C
16) O=C(COc1ccccc1Cl)Nc1ccc2nc(SCC(=O)N3CCCC3)sc2c1
Assay by compound	9	10	11	12	13	14	15	16
HCMV UL50-53 inh	nt	15.9	-12.5	-13.1	4.1	-16.8	-10.6	-11.2
Sa growth inh	112.3	96.8	90.0	110.1	93.6	109.8	nt	107.8
Sa growth inh second temp	94.5	90.9	69.2	95.6	93.9	101.8	nt	77.2
GIV-Gai inh	101.2	101.8	nt	nt	101.1	105.1	109.0	105.1

Only GIV-Gai inh and Sa growth inh, for some of the entries so far:
no.	mol	GIV-Gai inh	Sa growth inh
10	Cc1ccc2c(=O)cc(C(=O)Nc3ccc(S(=O)(=O)N4CCCCCC4)cc3)oc2c1	101.8	96.8
11	COc1ccc(CCNC(=O)C(c2ccccc2)c2ccccc2)cc1OC	nt	90.0
12	O=C(CSc1nc2ccccc2c(=O)n1CCCO)c1ccc2c(c1)OCO2	nt	110.1
13	Cc1sc2ncn(CC(=O)NCCC3=CCCCC3)c(=O)c2c1S(=O)(=O)N1CCCCC1	101.1	93.6
14	CCCCCn1c(=O)[nH]c2cc(C(=O)Nc3ccc(F)cc3)ccc2c1=O	105.1	109.8
15	Cc1sc2ncc(C(=O)N3CCN(c4ccccc4F)CC3)c(=O)n2c1C	109.0	nt
16	O=C(COc1ccccc1Cl)Nc1ccc2nc(SCC(=O)N3CCCC3)sc2c1	105.1	107.8

(more compounds)
17) COC(=O)c1c(NC(=O)c2nc3ccccc3s2)sc2c1CCN(C(C)=O)C2
18) CC1CCCCN1CCCNC(=O)Cn1ncc2c3ccccc3n(Cc3ccccc3)c2c1=O (configuration not stated)
19) O=C(c1ccccc1)c1ccncc1
20) O=C(COc1ccccc1F)Nc1nc(-c2cccs2)c(NC(=O)c2ccccc2)s1
21) CCOc1ccccc1CNC(=O)Cn1c(-c2ccccc2)cc(C(C)=O)c1C
22) O=c1c2c3c(sc2nc2n1CCCCC2)/C(=N/O)CCC3
23) Cc1c2cnn(CC(=O)NC3CCCc4ccccc43)c(=O)c2c(C)n1Cc1ccc(Cl)cc1 (configuration not stated)
24) CCn1c(-c2ccccc2)ccc1C(O)C(F)(F)F (configuration not stated)
Assay by compound	17	18	19	20	21	22	23	24
HCMV UL50-53 inh	2.2	-11.1	-15.8	3.7	-27.8	-28.9	nt	-5.4
Sa growth inh	89.6	106.5	95.0	99.6	139.3	90.7	90.0	95.3
Sa growth inh second temp	73.5	88.6	86.1	96.1	83.8	79.2	82.9	110.2
GIV-Gai inh	100.4	106.2	95.7	99.3	102.8	106.3	100.4	nt

25) CC(C)(C)C(=O)N1CCC(C)(C(=O)NCc2ccc(F)cc2F)CC1
26) CCN(CC)S(=O)(=O)c1ccc(C(=O)N2CCN(C3=NS(=O)(=O)c4ccccc43)CC2)cc1
27) O=C(Cn1cc(C(=O)c2cccs2)c2ccccc21)Nc1ccc(Br)cc1
28) O=C(CCN1C(=O)COc2ccccc21)Nc1ccc2c(c1)OCCCO2
29) Cc1ccc(C(=O)Oc2cc(C)nn2Cc2ccccc2)cc1
30) Nc1ccc(-c2ccc3ccccc3n2)cc1
31) c1ccc(-c2noc(C34CC5CC(CC(C5)C3)C4)n2)cc1
32) Fc1ccc(C=Nc2ccc(I)cc2)cc1
Assay by compound	25	26	27	28	29	30	31	32
HCMV UL50-53 inh	-19.4	-9.2	11.3	7.6	-24.9	-86.9	-6.2	-6.6
Sa growth inh	nt	105.7	99.3	107.6	119.3	nt	119.0	82.3
Sa growth inh second temp	nt	71.8	101.0	96.8	91.3	nt	79.0	89.7
GIV-Gai inh	104.1	98.0	108.2	nt	nt	103.2	95.9	nt

Structures above containing two or more sulfur atoms, in the order listed:
7) COc1ccc(S(=O)(=O)NCCc2sc3nc(-c4ccc(C)cc4)nn3c2C)cc1F
13) Cc1sc2ncn(CC(=O)NCCC3=CCCCC3)c(=O)c2c1S(=O)(=O)N1CCCCC1
16) O=C(COc1ccccc1Cl)Nc1ccc2nc(SCC(=O)N3CCCC3)sc2c1
17) COC(=O)c1c(NC(=O)c2nc3ccccc3s2)sc2c1CCN(C(C)=O)C2
20) O=C(COc1ccccc1F)Nc1nc(-c2cccs2)c(NC(=O)c2ccccc2)s1
26) CCN(CC)S(=O)(=O)c1ccc(C(=O)N2CCN(C3=NS(=O)(=O)c4ccccc43)CC2)cc1
Assay by compound	7	13	16	17	20	26
HCMV UL50-53 inh	nt	4.1	-11.2	2.2	3.7	-9.2
Sa growth inh	110.9	93.6	107.8	89.6	99.6	105.7
Sa growth inh second temp	93.5	93.9	77.2	73.5	96.1	71.8
GIV-Gai inh	105.5&94.7	101.1	105.1	100.4	99.3	98.0

Exported with each value named: 2 of the compounds above.
29. Cc1ccc(C(=O)Oc2cc(C)nn2Cc2ccccc2)cc1
  HCMV UL50-53 inh = -24.9; Sa growth inh = 119.3; Sa growth inh second temp = 91.3; GIV-Gai inh = nt
30. Nc1ccc(-c2ccc3ccccc3n2)cc1
  HCMV UL50-53 inh = -86.9; Sa growth inh = nt; Sa growth inh second temp = nt; GIV-Gai inh = 103.2

(continued)
33) O=C1/C(=C/c2cc(Br)ccc2OCc2ccccc2)Sc2ccccc21
34) COc1ccc(CN(Cc2nc3ccccc3c(=O)[nH]2)C(=O)NCc2ccccc2)cc1
35) COC(=O)/C(=C\N(C)C)S(=O)(=O)c1cc(C)c(Cl)cc1C
36) O=C(OCc1nc2scc(-c3ccccc3)c2c(=O)[nH]1)c1cccc(-n2cnnn2)c1
37) Cc1cccc(C)c1OCc1nc2c3cnn(-c4ccccc4Br)c3ncn2n1
38) Cc1cc(C)n(-c2ccc(SCC(=O)Nc3ccc(Cl)cc3)nn2)n1
39) Cn1c(=O)c(=O)n(CC(=O)O)c2ccccc21
40) CC12CC(C)(C)C(C#N)(C(N)=C1C#N)C(=C(C#N)C#N)N2 (configuration not stated)
Assay by compound	33	34	35	36	37	38	39	40
HCMV UL50-53 inh	-17.4	-3.4	-28.1	-2.2	-3.7	0.3	-6.8	6.9
Sa growth inh	nt	101.2	99.5	96.2	95.8	101.8	nt	108.0
Sa growth inh second temp	nt	82.3	93.1	91.6	93.0	93.0	nt	101.1
GIV-Gai inh	101.8	96.8	104.2	nt	96.2	102.4	98.0	123.4

41) O=C(CC(c1ccccc1)c1ccco1)N1CCCCC1 (configuration not stated)
42) CCN(C(=O)CCc1nc(-c2ccc(C)cc2)no1)c1cc(C)ccc1C
43) Cc1sc(-c2cccs2)nc1-c1ccccc1
44) COc1ccc(C(=O)N/N=C(\Cc2ncc[nH]2)c2ccccc2)cc1
45) Cn1c(=O)n(C)c2cc(Nc3cc(SCc4ccccc4)ncn3)ccc21
46) COc1cc(-c2nc(-c3nonc3N)no2)cc(OC)c1OC
47) Cc1csc(=O)n1CCC(=O)OCc1cc(Cl)cc2c1OCOC2
48) O=C(NCc1ccc2c(c1)OCO2)C1CCCN(c2ccnc(-c3ccc(F)cc3)n2)C1 (configuration not stated)
49) Cc1ccc(N2CCN(S(=O)(=O)c3cccc4ccccc34)CC2)cc1Cl
50) C/C(N)=C(/C#N)C(=O)CSc1nc(-c2ccccc2)cn1N
51) COc1ccccc1NC(=O)CSc1nc(-c2ccc(C)cc2)nc2c1Cc1c(CO)cnc(C)c1O2
Assay by compound	41	42	43	44	45	46	47	48	49	50	51
HCMV UL50-53 inh	5.3	0.2	-14.7	-34.9	-5.2	-4.7	-25.1	-22.7	17.6	-7.6	nt
Sa growth inh	98.2	111.4	83.3	93.7	108.4	94.9	89.6	nt	111.1	109.0	85.6
Sa growth inh second temp	104.9	93.7	75.4	93.2	42.5	92.4	88.9	nt	101.7	92.7	96.1
GIV-Gai inh	105.8	105.9	nt	nt	109.0	97.6	nt	105.9	103.1	nt	101.8
